Assay outcomes from PubChem BioAssay.
MLL AF4-AF9 inh: MLL-AF4/AF9 protein interaction inhibition. inhibition, % at 10 µM. AlphaScreen, biotin-AF4 peptide binding to FLAG-AF9. P42568. AID 651704. 350,000 tested, 0.47% active;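 active = every replicate reaching a set inhibition limit, whatever the replicate mean, cut at about 25% in these data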;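 note: 0% = plate neutral control median and 100% = total signal loss; the record names both 10 and 1 µM as test concentration; the first replicate is given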
Target sequence (P42568 whole entry, looked up): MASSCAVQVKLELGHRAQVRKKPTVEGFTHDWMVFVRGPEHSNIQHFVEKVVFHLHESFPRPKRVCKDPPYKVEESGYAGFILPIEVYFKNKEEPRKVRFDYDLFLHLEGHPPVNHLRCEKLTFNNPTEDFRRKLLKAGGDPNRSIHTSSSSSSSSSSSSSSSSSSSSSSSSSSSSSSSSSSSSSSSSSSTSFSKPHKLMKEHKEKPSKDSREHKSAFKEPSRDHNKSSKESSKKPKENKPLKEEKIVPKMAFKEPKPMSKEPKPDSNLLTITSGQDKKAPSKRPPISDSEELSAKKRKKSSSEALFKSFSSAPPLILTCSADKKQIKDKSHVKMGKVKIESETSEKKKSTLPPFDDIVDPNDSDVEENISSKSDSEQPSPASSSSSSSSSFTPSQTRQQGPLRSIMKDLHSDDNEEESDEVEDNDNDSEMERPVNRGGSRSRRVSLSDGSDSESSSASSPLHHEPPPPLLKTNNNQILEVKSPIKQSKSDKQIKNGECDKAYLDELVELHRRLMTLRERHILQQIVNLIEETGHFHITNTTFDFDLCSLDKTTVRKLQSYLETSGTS
Active calls of the source: *; & = joins results of further samples. These rows are one share of the data, so the mix of outcomes need not match the whole.

SMILES	MLL AF4-AF9 inh
C[C@@H]1CN([C@@H](C)CO)C(=O)c2cccc(NS(=O)(=O)c3ccc(F)cc3)c2O[C@@H]1CN(C)C(=O)Nc1ccccc1	-1.3
COC(=O)C[C@H]1C[C@H]2c3cc(NC(=O)Nc4ccccc4F)ccc3O[C@H]2[C@@H](CO)O1	2.9
COc1ccc(C)cc1NC(=O)COC(=O)Cc1c[nH]c2ccccc12	5.9
COc1ccccc1-c1csc(C(O)c2ccc(F)cc2)n1 (centres undefined)	-1.9
O=C(Nc1ccc(Cl)cc1)N[C@H]1CC[C@@H](CCNS(=O)(=O)c2ccccc2F)O[C@@H]1CO	-1.3
COc1ccc(C#Cc2ccc3c(c2)[C@]2(C(=O)N3)[C@H](c3ccc(OCCO)cc3)N3[C@H](c4ccccc4)[C@H](c4ccccc4)OC(=O)[C@H]3[C@@H]2C(N)=O)cc1	0.2
C[C@H](CO)N1C[C@H](C)[C@@H](CN(C)S(C)(=O)=O)Oc2ccc(NS(=O)(=O)c3ccc(F)cc3)cc2CC1=O	1.1
C[C@H](CO)N1C[C@H](C)[C@@H](CN(C)Cc2ccncc2)Oc2c(NC(=O)Nc3ccc(C(F)(F)F)cc3)cccc2C1=O	0.9
CC=Cc1ccc2n(c1=O)C[C@H]1[C@H](CO)[C@@H](C(=O)N[C@@H](C)c3ccccc3)N(C(=O)c3ccccn3)[C@@H]21 (mixture of isomers)	3.0
O=C(N[C@@H]1CC[C@H](CCNS(=O)(=O)c2ccc(Cl)cc2)O[C@H]1CO)c1ccccn1	-2.3
O=C(NCc1cccc(C(F)(F)F)c1)c1ccc2sc([C@@H]3O[C@H](CO)[C@@H](O)[C@H]3O)nc2c1	1.1
CCC(=O)N1CCC2(CC1)CN(Cc1cccc(Cl)c1)[C@H](CO)c1c2c2ccc(OC)cc2n1C	-0.4
C[C@@H](O)C#Cc1ccc2c(c1)O[C@@H](CN(C)CC1CCOCC1)[C@@H](C)CN([C@@H](C)CO)S2(=O)=O	-3.0
C[C@H]1CN([C@@H](C)CO)C(=O)c2cc(/C=C/c3ccccc3)cnc2O[C@H]1CN(C)Cc1ccccc1F	11
COCC(=O)N1CC2(C1)CN(Cc1cc(F)ccc1F)[C@@H](CO)c1[nH]c3cc(OC)ccc3c12	6.5
COc1ccc(NC(=O)Nc2ccc3c(c2)[C@@H]2C[C@@H](CC(=O)NC4CCCC4)O[C@H](CO)[C@@H]2O3)cc1	1.6
CC(C)(C)OC(=O)N1CCCC(C(=O)Nc2cccc(C(=O)NCCCCc3ccccc3)c2)C1 (centres undefined)	-2.8
N#Cc1ccc(C(C(=O)NC2CCCCC2)n2c(=O)c(-c3cc4ccccc4[nH]3)nc3ccccc32)cc1 (centres undefined)	-30
COc1ccc(CN(C)C[C@@H]2Oc3ccc(NS(=O)(=O)c4ccc(F)cc4)cc3CC(=O)N([C@H](C)CO)C[C@H]2C)cc1	1.9
COc1ccc(CN(C)C[C@@H]2OCCCC[C@@H](C)Oc3ccc(NC(=O)Nc4ccc(C(F)(F)F)cc4)cc3C(=O)N([C@H](C)CO)C[C@H]2C)cc1	16

Reformatted: results already given
SMILES,MLL AF4-AF9 inh
COCC(=O)N1CC2(C1)CN(Cc1cc(F)ccc1F)[C@@H](CO)c1[nH]c3cc(OC)ccc3c12,6.5
COc1ccc(NC(=O)Nc2ccc3c(c2)[C@@H]2C[C@@H](CC(=O)NC4CCCC4)O[C@H](CO)[C@@H]2O3)cc1,1.6
CC(C)(C)OC(=O)N1CCCC(C(=O)Nc2cccc(C(=O)NCCCCc3ccccc3)c2)C1 (centres undefined),-2.8
N#Cc1ccc(C(C(=O)NC2CCCCC2)n2c(=O)c(-c3cc4ccccc4[nH]3)nc3ccccc32)cc1 (centres undefined),-30
COc1ccc(CN(C)C[C@@H]2Oc3ccc(NS(=O)(=O)c4ccc(F)cc4)cc3CC(=O)N([C@H](C)CO)C[C@H]2C)cc1,1.9
COc1ccc(CN(C)C[C@@H]2OCCCC[C@@H](C)Oc3ccc(NC(=O)Nc4ccc(C(F)(F)F)cc4)cc3C(=O)N([C@H](C)CO)C[C@H]2C)cc1,16

(cont.)
SMILES	MLL AF4-AF9 inh
CC(=O)NCCNc1nc2cc(-c3ccc(Cl)cc3C)sc2c(=O)n1C	-1.3
C[C@H]1CN([C@@H](C)CO)C(=O)Cc2cc(NC(=O)Nc3ccc(F)cc3)ccc2O[C@H]1CN(C)Cc1ccc(-c2ccccc2)cc1	-7.4
COCC#Cc1ccc([C@@H]2[C@@H](C#N)N(C(=O)Cc3ccccc3)[C@@H]2CO)cc1	-0.1
O=C(c1ccc(F)cc1)N1CCC(C(=O)N2CCCc3ccccc32)CC1	0.9
C[C@H](CO)N1C[C@H](C)[C@@H](CN(C)S(=O)(=O)c2cccs2)Oc2ccc(NC(=O)Nc3ccc(C(F)(F)F)cc3)cc2CC1=O	4.3
CC(=O)Nc1cc(-c2cccc(F)c2)cn2c(-c3ccc(F)cc3)cnc12	-2.8
CCS(=O)(=O)Nc1ccc2c(c1)C(=O)N(C)[C@H]1CC[C@H](CC(=O)N3CCCCC3)O[C@@H]1CO2	-0.2
CN(C)C(=O)c1cccc(-c2ccc(C3[C@H]4CNC[C@@H]3N4C(=O)Nc3ccccc3F)cc2)c1 (some centres undefined)	1.6&1.7
CC=Cc1ccc2n(c1=O)C[C@@H]1[C@@H](CO)[C@H](C(=O)NCCC)N(Cc3ccccn3)[C@H]21 (mixture of isomers)	-2.1
C[C@H]1CN([C@@H](C)CO)C(=O)c2cc(-c3ccc(C#N)cc3)cnc2O[C@@H]1CN(C)CC1CCCCC1	-2.0
COc1ccc(CN(C)C[C@H]2Oc3c(NC(=O)Nc4cccc5ccccc45)cccc3C(=O)N([C@H](C)CO)C[C@H]2C)cc1	13
CCS(=O)(=O)N1CC(=O)N2[C@H](CO)[C@H](c3ccc(C4=CCCC4)cc3)[C@@H]2C1	0.0
NC(Cc1ccc(C(F)(F)F)cc1)c1csc(Nc2ccc(C(=O)NCc3ccco3)cn2)n1 (centres undefined)	4.2
COc1ccc(S(=O)(=O)N(C)C[C@@H]2OCCCC[C@H](C)Oc3ccc(NC(=O)Nc4cccc5ccccc45)cc3C(=O)N([C@@H](C)CO)C[C@H]2C)cc1	-12
C[C@@H]1CN([C@@H](C)CO)C(=O)c2cccc(NC(=O)c3ccc(-c4nccs4)cc3)c2O[C@@H]1CN(C)S(=O)(=O)c1ccc(F)cc1	-0.6
C[C@@H]1CCCCO[C@@H](CN(C)Cc2ccncc2)[C@H](C)CN([C@@H](C)CO)C(=O)c2cc(NC(=O)Nc3cccc4ccccc34)ccc2O1	1.6
Cc1ccc(S(=O)(=O)N(C)C[C@H]2Oc3ccc(NC(=O)Cc4cn(C)c5ccccc45)cc3C(=O)N([C@H](C)CO)C[C@H]2C)cc1	3.4
C[C@H](CO)N1C[C@H](C)[C@H](CN(C)Cc2ccc(Cl)c(Cl)c2)Oc2c(NS(C)(=O)=O)cccc2C1=O	-1.1
CC=Cc1ccc2n(c1=O)C[C@H]1[C@H](CO)[C@@H](C(=O)N[C@H](C)c3ccccc3)N(C)[C@@H]21 (mixture of isomers)	0.6
O=c1ccc2ccccc2c2ccccc12	-7.1
O=C(Nc1ccccc1F)N1CCCCN2[C@@H](CO)[C@@H](c3ccc(-c4cccnc4)cc3)[C@@H]2C1	-1.5
O=S1(=O)N[C@@H](Cc2ccccc2)COc2cc(N3CCCCC3)ccc21	-0.7
COc1ccc(CN2[C@@H]3CN(C(=O)Nc4ccc(F)cc4)c4ccccc4[C@@H]3[C@@H]2CO)cc1	0.9
O=C(NC1Cc2ccccc2C1)[C@@H]1[C@@H](CO)[C@@H]2Cn3c(cccc3=O)[C@@H]2N1C(=O)c1ccccn1	-2.2
CN(c1cc2c(c3c1ccn3C)C1CCC2C1)C1CCCCC1 (centres undefined)	39*
Cc1noc(C)c1NC(=O)N(C)C[C@H]1Oc2ccc(NC(=O)Cc3ccccc3)cc2CC(=O)N([C@@H](C)CO)C[C@@H]1C	-1.6
COCC(=O)N1CCCCN2[C@H](C1)[C@H](c1ccc(-c3ccccc3)cc1)[C@@H]2CO	19
Cc1ccc(S(=O)(=O)Nc2ccc3c(c2)CC(=O)N([C@@H](C)CO)C[C@H](C)[C@H](CN(C)S(C)(=O)=O)O3)cc1	-2.9
C[C@H](CO)N1C[C@H](C)[C@@H](CN(C)Cc2ccccc2)Oc2ncc(C#CC3(O)CCCC3)cc2C1=O	0.0
COc1ccc(NC(=O)c2cc(C3CCCCN3C(=O)OCC(C)C)on2)c(C)c1 (centres undefined)	0.9

Next section, starting with the last 2 of the part before.
SMILES	MLL AF4-AF9 inh
C[C@H](CO)N1C[C@H](C)[C@@H](CN(C)Cc2ccccc2)Oc2ncc(C#CC3(O)CCCC3)cc2C1=O	0.0
COc1ccc(NC(=O)c2cc(C3CCCCN3C(=O)OCC(C)C)on2)c(C)c1 (centres undefined)	0.9
C[C@H]1CN([C@@H](C)CO)C(=O)c2cc(-c3ccccc3F)cnc2O[C@@H]1CN(C)C(=O)C1CCOCC1	-0.9
Cc1cc(C)cc(Cn2c(C)c(C(=O)N(C)Cc3ccc(F)cc3)sc2=O)c1	0.0
CCC(=O)NC[C@H]1[C@H](c2ccccc2)[C@@H](CO)N1C(=O)C1CCC1	-1.6
COc1ccc2c3c([nH]c2c1)[C@@H](CO)N(C(=O)C1CCOCC1)CC31CN(C)C1	2.2
C[C@H](CO)N1C[C@H](C)[C@@H](CN(C)S(=O)(=O)c2ccc(Cl)cc2)OCCCC[C@H](C)Oc2ccc(NC(=O)NC3CCCCC3)cc2C1=O	-0.3
C=CC[C@]1(C(=O)NCCCOC)COC(c2ccc(OCCCO)cc2)=N1	-1.5
C[C@@H]1CN([C@@H](C)CO)C(=O)c2ccccc2-c2ccccc2CO[C@H]1CN(C)C(=O)Nc1cccc(F)c1	-2.6
CN(C)C(=O)[C@H]1[C@H](CO)[C@H]2Cn3c(ccc(-c4ccncc4)c3=O)[C@@H]1N2C(=O)NC1CCCC1	-4.1
Cc1ccc(S(=O)(=O)Nc2ccc3c(c2)CC(=O)N([C@H](C)CO)C[C@H](C)[C@@H](CN(C)Cc2ccc(Cl)c(Cl)c2)O3)cc1	-0.6
COc1cccc(-c2ccc3c(c2)O[C@H](CN(C)Cc2cccnc2)[C@H](C)CN([C@@H](C)CO)S3(=O)=O)c1	0.0
CCC(=O)N1[C@H](CN(C)C(C)=O)[C@@H](c2ccc(C3=CCCC3)cc2)[C@@H]1CO	-2.8
COc1ccc(NC(=O)Nc2ccc3c(c2)C(=O)N([C@@H](C)CO)C[C@H](C)[C@@H](CN(C)C(=O)Nc2ccccc2)O3)cc1	-2.8
C[C@@H]1CN([C@@H](C)CO)C(=O)c2cc(NC(=O)CCCN(C)C)ccc2O[C@H]1CN(C)CC1CCCCC1	-2.0
C[C@H](CO)N1C[C@H](C)[C@H](CN(C)Cc2ccc(Cl)c(Cl)c2)OCCCC[C@H](C)Oc2ccc(NC(=O)c3ccccc3)cc2C1=O	-1.5
COc1ccccc1-c1ccc2c(c1)O[C@@H](CN(C)C(=O)c1ccccc1)[C@@H](C)CN([C@@H](C)CO)S2(=O)=O	1.3
Cc1ccc(S(=O)(=O)Nc2cccc3c2O[C@@H](CN(C)Cc2ccc(C(=O)O)cc2)[C@@H](C)CN([C@H](C)CO)C3=O)cc1	-1.0
CCCNC(=O)N1C[C@H]2[C@@H](c3ccccc31)[C@@H](CO)N2C(=O)C1CCOCC1	-1.5
Cc1cc(C(=O)N2CCC2(C)C(=O)NCC(C)(C)C)nn1C (centres undefined)	-0.7
C/C=C/c1cnc2c(c1)C(=O)N([C@H](C)CO)C[C@H](C)[C@H](CN(C)Cc1ccncc1)O2	-6.4
Cc1noc(C)c1NC(=O)NCC[C@H]1CC[C@@H](NC(=O)c2ccc(F)cc2)[C@@H](CO)O1	-1.2
C[C@@H]1CN([C@@H](C)CO)C(=O)Cc2cc(NC(=O)Nc3ccc4c(c3)OCO4)ccc2O[C@H]1CN(C)Cc1ccc(-c2ccccc2)cc1	3.0
OC(c1cccc(CN2CCCCC2)c1)c1ncc(-c2cccc(C(F)(F)F)c2)[nH]1 (centres undefined)	14
CC(=O)N[C@@H]1CC[C@H](CC(=O)NCC2CCCCC2)O[C@@H]1CO	-0.3
COc1ccc(NC(=O)N(C)C[C@H]2Oc3ncc(C#CC(C)C)cc3C(=O)N([C@@H](C)CO)C[C@H]2C)cc1	-0.8
C[C@H]1CCCCO[C@H](CN(C)C(=O)c2ccncc2)[C@@H](C)CN([C@@H](C)CO)C(=O)c2cc(NC(=O)Cc3ccccc3)ccc2O1	-1.3
O=C(C[C@H]1C=C[C@@H](NC(=O)c2cccc(F)c2)[C@H](CO)O1)NCc1ccc(Oc2ccccc2)cc1	-17
COc1ccc(-c2ccc([C@@H]3[C@H](C#N)N(C(=O)c4cccnc4)[C@H]3CO)cc2)cc1	-0.8
C[C@H](CO)N1C[C@H](C)[C@@H](CN(C)C(=O)Nc2cccc3ccccc23)Oc2c(NC(=O)Nc3ccc4c(c3)OCO4)cccc2C1=O	5.5
Cc1ccc(S(=O)(=O)N(C)C[C@@H]2OCCCC[C@H](C)Oc3ccc(NC(=O)c4ccccc4)cc3C(=O)N([C@H](C)CO)C[C@@H]2C)cc1	-1.7
CO[C@@H]1CN(C)C(=O)c2cc(NC(=O)c3cnccn3)ccc2OC[C@H](C)N(C(C)=O)C[C@@H]1C	-2.5
C[C@H](CO)N1C[C@H](C)[C@@H](CN(C)C)Oc2cc(C#CCC3CCCC3)ccc2S1(=O)=O	12
CCC(CO)Nc1ccn2nc(-c3cccc(Cl)c3)cc2n1 (centres undefined)	-0.7
Cc1noc(C)c1S(=O)(=O)N(C)C[C@H]1Oc2ccc(NC(=O)CCN3CCOCC3)cc2CC(=O)N([C@H](C)CO)C[C@H]1C	1.0
C[C@H](CO)N1C[C@H](C)[C@@H](CN(C)Cc2ccncc2)Oc2c(NC(=O)Nc3ccc4c(c3)OCO4)cccc2C1=O	1.1
